LANA-nucl inh = inhibitors of KSHV LANA-nucleosome binding, primary screen, biochemical, fluorescence polarization, FITC-LANA1-23, chicken nucleosomes | FITC-LANA1-23 / chicken nucleosome fluorescence polarization; active compounds read low | z-score (test concentration not listed) | 51,000 compounds, 0.3% hits | AID 720717, 2013;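 active = both repeat wells score below -2 in polarization z-score versus plate sample wells, excluding overly bright wells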;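 note: 100 nL library stock added to about 30 µL; numbers are from one replicate; some results filed as inactive read as strong as hits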
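Assay system: FITC-LANA peptide and chicken nucleosomes; input: 240 nM purified chicken nucleosomes (480 nM peptide binding sites), final; also added: 50 nM FITC-LANA1-23 probe; medium: TEN-BT buffer, pH 7.5; doses: pin-transferred compound, 100 nL; times: 10–45 min, room temperature; technique: fluorescence polarization; replication: duplicates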
BasE inh = BasE siderophore enzyme inhibitors, primary screen, biochemical, Acinetobacter baumannii ATCC 17978, fluorescence polarization; purified BasE, fluorescence polarization binding displacement; inhibition, % (test concentration not listed); 84,000 compounds, 0.1% hits; AID 485350, 2010;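 active = both replicates above 25% with normal brightness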;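 note: 0% = negative plate control signal and 100% = positive plate control signal; stock transfer was 100 nL into about 30 µL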
* hit, by the source's call; x = no result given; & = joins results of further samples. Some of the compounds tested (hit frequency here may not be typical).

SMILES	LANA-nucl inh	BasE inh
C=CCNC(=O)Cc1ccccc1OC	0.76	0.9
O=C1CS(=O)(=O)CC(=O)N1c1ccc(Cl)c(Cl)c1	-0.82	x
COCC(C)N=C1NN=C(c2cc(C)n(-c3c(C)n(C)n(-c4ccccc4)c3=O)c2C)CS1 (stereo not given)	x	2.2
Cc1c(C(=O)N2CCC(C(=O)N3CCN(c4ccccc4)CC3)CC2)oc2cc3sc(N(C)C)nc3cc12	-0.36	1.6
Cc1cc(C)cc(-n2c(C)cc(/C=C3\SC(=O)NC3=O)c2C)c1	x	-0.7
O=c1[nH]c(=O)n([C@H]2C[C@H](O)[C@@H](CO)O2)cc1F	-0.62	x
O=C(NCc1ccc(Cl)c(Cl)c1)c1c[nH]c2ccccc12	-0.076	x
Cc1cc(C)c2nc(N3CCCC(C(=O)N4CCN(c5ccccn5)CC4)C3)sc2c1 (stereo not given)	-0.037	-1.4
COc1ccc(-c2nnc(SC(C)C(N)=O)o2)cc1 (stereo not given)	x	3.3
N#Cc1c(C(F)(F)F)cc(C2CC2)[nH]c1=O	0.69	-0.3
Cc1cc(C)cc(Nc2ncnc3nc[nH]c23)c1	0.55	-1.3
O=C(Cc1ccc(-c2ccccc2)cc1)NCc1nc(-c2ccccc2)no1	-0.64	1.4
CCOC(=O)C1CCCN(C(=O)c2ccc(C)cc2O)C1 (stereo not given)	x	-6.2
CC1CC(=O)Nc2ccccc2N1S(=O)(=O)c1ccc(-c2cc(C(F)(F)F)on2)s1 (stereo not given)	x	1.2
CCC(=O)c1c[nH]c(C(=O)Nc2ccc(OC)cc2)c1	-0.63	x
CC(=O)c1sc2nsc(SCCN3CCOCC3)c2c1N	-0.12	x
CCOC(=O)c1cnc(Nc2nc3ccccc3o2)nc1CSc1ccc(Cl)cc1	1.2	0.9
O=C(O)c1ccc(NC(=O)C2CCCCC2)cc1	0.05	-0.8
C=CCn1c(COc2ccccc2)nnc1SC(C)C(=O)Nc1nccs1 (stereo not given)	-0.55	1.9
COc1ccc(C2C3=C(CC(C)(C)CC3=O)Nc3c2c(=O)[nH]c2nc(C)nn32)cc1 (stereo not given)	3.1	-1.1
COc1cc(C(CC(=O)O)CC(=O)Nc2ccc(C)cc2)cc(OC)c1OC (stereo not given)	-0.26	-2.5
N#Cc1ccsc1NC(=O)CCCSc1nc2ccccc2[nH]1	x	1.4
COc1ccc(N2CC(C(=O)Oc3coc(CSc4ncccn4)cc3=O)CC2=O)cc1 (stereo not given)	0.05	1.7
COC(=O)C1=C(C)NC(C)=C(C(=O)OC)C1C(=O)OCC(=O)c1cc(C)n(-c2nccs2)c1C	x	1.3
Cc1cc(/C=c2\sc3nc4ccccc4n3c2=O)c(C)n1C(C)C	0.098	2.7
SMILES	LANA-nucl inh	BasE inh
Cc1ccc2c(CN(C)CCC#N)cc(=O)oc2c1	0.95	-0.3
COc1cc(/C=C2/C(=N)N3C(=NC2=O)SN=C3S(=O)(=O)C(C)C)cc(Cl)c1OC(=O)c1ccco1	0.71	-54
CC(C)(C)NC(=O)Cn1c(S(=O)(=O)Cc2ccccc2)nc2ccccc21	0.54	-0.4
Cn1c(C=Nc2ccc(Cl)cc2)nc2ccccc21	-0.046	1.3
Cn1nc(C(F)(F)F)cc1-c1ccc(C=C(C#N)C#N)s1	2.8	2.5
N#Cc1cccc(C#N)c1Oc1ccc(S(=O)(=O)N2CCCCC2)cc1	0.14	0.6
CC(=C\C(=O)O)/C(=C/c1ccccc1)C(=O)O	-0.46	0.7
O=C(CNc1ccccc1C(=O)NCc1ccco1)Nc1ccc2c(c1)OCCO2	x	-1.2
Cc1nc2scc(C)n2c1/C=N/NC(=O)CSc1cccc2cccnc12	x	-0.5
Cc1ccccc1NC(=O)c1ccc2nc(C)c(C)nc2c1	1.7	-2.6
CNC(=O)COc1cccc2c1OC(C)(C)C2	x	-0.5
COC(=O)c1cc(OC)c(OC)c(OC)c1-n1c(C)cc(C(N)=O)c1C	x	0.3
CCNS(=O)(=O)c1ccc(Br)c2ccccc12	0.53	2.4
CC(OC(=O)C1CC(=O)N(CCc2ccccc2)C1)C(=O)Nc1ncc(Cl)cc1Cl (stereo not given)	x	2.3
O=C(CC(c1ccccc1)c1ccccc1)N1CCN(Cc2ccc3c(c2)OCO3)CC1	0.68	-1.7
CCn1c(COC(=O)Cn2c(=O)oc3ccccc32)nc2cc(S(=O)(=O)N(C)C)ccc21	x	-1.3
Cc1cnc(C(=O)OCC(=O)N2CCCc3ccccc32)cn1	x	-0.1
CCOC(=O)c1cnc2c(cnn2CC)c1NN=C(C)C	-0.82	x
CC(C)CNc1nc(=S)nc(N(C)C)[nH]1	2.5	-1.9
O=C(Cn1nnc2c(cnn2-c2ccccc2)c1=O)N(c1ccccc1)c1ccccc1	-0.98	3.3
Cc1ccc(NC(=O)CSCc2n[nH]c(=O)[nH]2)c(Br)c1	-0.12	1.9
CCOC(=O)C1CCN(C(=O)CSc2nnc(-c3ccc(C)cc3)n2N)CC1	x	-0.4
CCOc1ccc2nc(Cl)c(CN(Cc3ccco3)C(C)=O)cc2c1	-0.45	3.3
COc1cc(C(=O)NCCOc2ccc(C)c(C)c2)cc(OC)c1OC	-0.44	0.8
CCc1ccc(NC(=O)c2cnc(N3CCN(c4ccccn4)CC3)c3ccccc23)cc1	-1.5	1.2
SMILES	LANA-nucl inh	BasE inh
O=C1OC(C(=O)NCc2ccccc2)Cc2ccccc21 (stereo not given)	-0.42	-1.0
Cc1sc2nc(SCCC(C)C)nc(N)c2c1C	x	-0.6
Cc1ccsc1CCNS(=O)(=O)c1ccc(CN2C(=O)c3cccnc3C2=O)s1	-0.98	1.9
CCOC(=O)c1sc(N(Cc2ccccc2)C(=O)CSc2nnc3n2CCCCC3)nc1C	x	-2.0
CCn1c(O)c(C=Nc2ccc3[nH]ncc3c2)c(=O)n(CC)c1=S	x	-1.3
O=C1CCCN1c1ccc(S(=O)(=O)NCCOc2ccccc2Cl)cc1	-0.28	2.3
COc1cc(CC(=O)N2CCN(C(=O)C3CCCO3)CC2)cc(OC)c1OC (stereo not given)	x	2.2
N#CC(Cc1ccccc1)Sc1nnc2sc3ccccc3n12 (stereo not given)	x	-1.1
CN=C1SC(CC(=O)Nc2ccc(F)cc2F)C(=O)N1/N=C(\C)c1cccc(-n2cnnn2)c1 (stereo not given)	x	0.6
CC(C)(C)C(=O)Oc1ccc(Br)cc1	1.6	-0.7
CN(CC(O)Cn1c2ccccc2c2ccccc21)S(=O)(=O)c1ccc(Cl)cc1 (stereo not given)	x	-1.0
CCc1cc(=O)oc2c(OC(C)=O)c(OC(C)=O)ccc12	-0.36	1.2
C=CCn1c(=O)[nH]c2nc3cc(NC(=O)CC)ccc3nc2c1=O	-1.5	19
Cc1cccc(OCc2nnc(SCc3nc4ccccc4nc3C)o2)c1	x	0.4
CCOC(=S)Nc1cccc2ccccc12	x	-0.5
O=c1cc(CNC(c2ccccc2)c2ccccc2)nc2sccn12	x	-1.7
CS/C(NCC1CC1)=C(/C#N)C(=O)c1ccc(Cl)cc1	x	-5.2
O=S(=O)(c1ccccc1)N1CCC(O)(c2ccccc2)C2CCCCC21 (stereo not given)	-0.097	0.0
CCOc1ccc(-c2c(C)[nH]n3c(=O)c(N4CCc5ccccc5C4)c(C)nc23)cc1OCC	-0.36	-2.5
N#C/C(=C/c1ccccc1)C(=O)NCc1ccccc1	0.5	-0.5
Cc1cc(=O)n2[nH]cnc2n1	0.58	-0.2
CCN(CC)C(=O)Oc1ccc(Br)cc1C(=O)Nc1ccc(F)cc1F	0.37	x
CSc1nc(-c2ccc(Cl)cc2)nc(SC)c1Cl	x	-1.6
O=C(C1CC1)N1CCc2cc(S(=O)(=O)Nc3ccc(Cl)cc3)ccc21	-0.32	0.5
NC(=O)C1CC(=O)N(CCc2ccc(F)cc2)C1 (stereo not given)	0.16	-0.6

Brought forward from above: four entries; new compounds follow.
SMILES	LANA-nucl inh	BasE inh
CCN(CC)C(=O)Oc1ccc(Br)cc1C(=O)Nc1ccc(F)cc1F	0.37	x
CSc1nc(-c2ccc(Cl)cc2)nc(SC)c1Cl	x	-1.6
O=C(C1CC1)N1CCc2cc(S(=O)(=O)Nc3ccc(Cl)cc3)ccc21	-0.32	0.5
NC(=O)C1CC(=O)N(CCc2ccc(F)cc2)C1 (stereo not given)	0.16	-0.6
Cc1ccc2nc(NC(=O)c3nc(-c4ccccc4)oc3C)sc2c1	x	2.5
O=C(O)c1cn(CCOc2ccccc2)c2ccccc12	0.21	1.4
COC(=O)c1ccc(NC(=O)CCSc2ccccc2)cc1	-1	3.5
CCN(CC)CCCNc1nc(C)nc2c1nnn2Cc1ccccc1	-0.69	-1.6
Cc1noc(C)c1COc1ccc(C(=O)OCC(=O)NC23CC4CC(CC(C4)C2)C3)cc1	x	1.6
CCCNC(=O)c1ccc(NC(=O)N2CCCCc3ccccc32)cc1	-0.068	1.9
c1ccc(-c2cc(-c3nnco3)c3ccccc3n2)nc1	x	0.9
O=C(NC(=O)N1CCCC1)C1CCN(c2cnc3ccccc3n2)CC1	x	3.8
Cc1nn(-c2ccccc2)c2sc(C(=O)N(Cc3ccccc3)Cc3ccccc3)cc12	x	0.9
CC/C(=C(\c1ccccc1)c1ccc(OCCN(C)C)cc1)c1ccccc1	-0.043&-0.12&0.59&0.11&0.12	1.3&-3.6&1.4
O=C(Cn1cnc2ccccc2c1=O)NCCSCc1ccco1	x	1.4
CN1CCCCc2c1nc1ccccc1c2N	-1.1	2.9
O=C(OCC(=O)N1CCCCC1)c1ccc(I)cc1	x	0.9
N=C1C(c2nc3ccccc3[nH]2)=C(O)CN1CCN1CCOCC1	x	-0.4
Cc1nc2c(oc3nc(-c4ccco4)c4c(c32)CC(C)(C)OC4)c(-c2ccccc2)c1C(=O)O	0.74	-2.0
O=C(NCc1ccncc1)Nc1ccccc1	1.7	-0.5
Cc1cc(C)c(S(=O)(=O)N(CCC(C)C)S(=O)(=O)c2ccccc2C#N)c(C)c1	x	0.5
CC(C)C(=O)NC1C2CC3CC(C2)CC1C3 (stereo not given)	0.082	1.1
O=C(NCc1ccncc1)c1ccc(N2CCCCS2(=O)=O)cc1	0.49	-1.2
N#CCN1C(=O)c2ccccc2C1=O	0.042	0.6
CCS(=O)(=O)NCc1csc(C)n1	0.13	1.7
NS(=O)(=O)c1ccc(CNC(=O)CSc2ncccn2)cc1	x	2.3
Cc1ccc(NC(=O)NC(=O)CSc2nnc(Cc3csc(C)n3)o2)c(C)c1	x	0.3
Cn1c(C(C#N)C(=O)c2cccc(N3C(=O)c4ccccc4C3=O)c2)nc2ccccc21 (stereo not given)	x	1.2
NC(=O)COC(=O)c1cccc2c1-c1ccccc1C2=O	-0.047	1.6

Full records, quoted from the list:
CC(C)C(=O)NC1C2CC3CC(C2)CC1C3 (stereo not given) is listed with LANA-nucl inh: 0.082; BasE inh: 1.1
Cc1nn(-c2ccccc2)c2sc(C(=O)N(Cc3ccccc3)Cc3ccccc3)cc12 is listed with LANA-nucl inh: x; BasE inh: 0.9

Copied from the results shown (5 entries):
SMILES	LANA-nucl inh	BasE inh
Cc1ccc2nc(NC(=O)c3nc(-c4ccccc4)oc3C)sc2c1	x	2.5
O=C(O)c1cn(CCOc2ccccc2)c2ccccc12	0.21	1.4
COC(=O)c1ccc(NC(=O)CCSc2ccccc2)cc1	-1	3.5
CCN(CC)CCCNc1nc(C)nc2c1nnn2Cc1ccccc1	-0.69	-1.6
Cc1noc(C)c1COc1ccc(C(=O)OCC(=O)NC23CC4CC(CC(C4)C2)C3)cc1	x	1.6

(more compounds)
SMILES	LANA-nucl inh	BasE inh
Cc1cc(NC(=O)CNCc2ccccc2)n(-c2nc3ccccc3s2)n1	x	1.1
O=C(CNc1ccc(C(=O)O)cc1)NCc1ccc2c(c1)OCO2	0.3	0.1
COc1ccc(NC(=O)N2CCN(C(=O)C(Cc3ccc(F)cc3)NC(C)=O)CC2)cc1 (stereo not given)	1.4	-2.4
CS(=O)(=O)Nc1cccc(C(F)(F)F)c1	1.3	-2.1
Cc1cn(C(=O)c2ccccc2)c(=O)[nH]c1=O	0.54	-1.3
COc1ccc(C=NCc2ccc(OC)c(OC)c2)cc1OC	x	2.8
C#CCSc1ccccc1C(=O)O	x	0.0
CCOc1ccc(S(N)(=O)=O)cc1OCC	x	0.2
Cc1noc(C)c1COC(=O)C(C)N1C(=O)c2ccccc2C1=O (stereo not given)	x	1.1
Cc1nc(SCC(=O)c2ccc3[nH]c(=O)[nH]c3c2)c2ccccc2n1	x	-0.2
CCC(C(=O)O)n1nnc(-c2ccc(Cl)cc2)n1 (stereo not given)	x	-0.7
Cc1cc(C(=O)COC(=O)Cn2cnnn2)c(C)n1CC1COc2ccccc2O1 (stereo not given)	x	0.7
CC(=O)NC(CC(=O)O)c1ccc(F)cc1 (stereo not given)	-1.4	-1.2
COc1ccc(OCCNC(=O)N2CCOCC2)cc1	0.14	3.4
COCCCn1c(SCC(=O)N(Cc2ccco2)c2nccs2)nc2sc3c(c2c1=O)CCC3	-0.71	-1.2
CC(C)(C)C(=O)CON1C(=O)c2ccccc2C1=O	-0.11	-0.4

High-throughput results as filed in PubChem.
